UUG fidelity = modulators of start codon recognition fidelity in yeast. S. cerevisiae UUG-firefly luciferase reporter, luminescence/redox ratio. activity score, % at 18.7 µM. 0.13% of 350,000 active;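 active = replicate mean at a twofold rise or more, about +100% in these data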;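 also: firefly luciferase made from a UUG start codon reports start codon fidelity; reporter light over untreated wells divided by growth signal over untreated wells; some hits fall short of that in this replicate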
MT1-MMP act inh = blocks activation of human MT1-MMP | P50281 | HT1080 RFP-PRO-GFP cells, GFP/RFP ratio fluorescence, overnight; percent of plate control window, DMSO zero | GFP/RFP ratio change, % at 20 µM | 0.061% of 360,000 active | AID 651647;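 active = GFP/RFP ratio change of at least 30% with cell ATP level not reduced by more than half and red fluorescence within 50% of control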; also: strong numbers were not always called active
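Assay system: RFP-PRO-GFP reporter HT1080 cells; read-out basis: GFP/RFP fluorescence ratio; benchmarks: DMSO wells and RFP-L50D-GFP cells; doses: 20 µM single dose, 1% DMSO; schedule: overnight cell settling, then overnight compound exposure, 37 °C, 5% CO2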
MT1-MMP act inh RFP = also measured in MT1-MMP act inh; calls as there; RFP signal change, %; measured here: RFP expression control read;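 0 = vehicle wells; hits needed this value within 50% of zero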
* hit, by the source's call; & = joins results of further samples.

MT1-MMP act inh,UUG fidelity,MT1-MMP act inh RFP,SMILES
5,-1,6,O=[N+]([O-])c1ccc(CN2CC(N3CCCC3)CS2(=O)=O)cc1 (stereo not given)
21,2,4,COc1ccc(C2=Nn3c(nnc3-c3ccccc3OC)SC2)cc1OC1CCCC1
4,-13,-1,N#Cc1ccc(C(=O)N2CCC3CC2c2cc(-c4ccccc4)ccc23)cc1 (stereo not given)
-3,-3,-1,CCOc1ccc(NC(=O)CN(C)C(=O)Cc2n[nH]c(=O)c3ccccc23)cc1OCC
5,-4,0,CCNC(=O)C1CCCN(C(=O)c2ccc3c(c2)OCO3)CC1 (stereo not given)
8,-5,5,Cc1ccc(S(=O)(=O)NCc2ccccc2)cc1C(=O)N(C)CC(=O)Nc1ccccc1Br
1,-4,1,CCCCN(C(=O)C(C)N1C(=O)c2ccccc2C1=O)c1c(N)n(CC(C)C)c(=O)[nH]c1=O (stereo not given)
3,-15,0,COCCNC(=S)Nc1ccc(N2CCOCC2)c(S(=O)(=O)Nc2ccccc2OC)c1
3,-8,-1,COc1ccc(N2CCN(C(=O)CN3C(=O)NC4(CCCCCC4)C3=O)CC2)cc1
3,-14,2,COC(=O)[C@H](CC(C)C)NC(=O)/C=C/[C@H]1O[C@@H](n2cc(C)c(=O)[nH]c2=O)C[C@@H]1O

Whole records as entered above. Screens in order: MT1-MMP act inh | UUG fidelity | MT1-MMP act inh RFP
N#Cc1ccc(C(=O)N2CCC3CC2c2cc(-c4ccccc4)ccc23)cc1 (stereo not given) across the screens: 4 | -13 | -1
COc1ccc(C2=Nn3c(nnc3-c3ccccc3OC)SC2)cc1OC1CCCC1 across the screens: 21 | 2 | 4
CCCCN(C(=O)C(C)N1C(=O)c2ccccc2C1=O)c1c(N)n(CC(C)C)c(=O)[nH]c1=O (stereo not given) across the screens: 1 | -4 | 1
COC(=O)[C@H](CC(C)C)NC(=O)/C=C/[C@H]1O[C@@H](n2cc(C)c(=O)[nH]c2=O)C[C@@H]1O across the screens: 3 | -14 | 2
CCOc1ccc(NC(=O)CN(C)C(=O)Cc2n[nH]c(=O)c3ccccc23)cc1OCC across the screens: -3 | -3 | -1

(cont.)
MT1-MMP act inh,UUG fidelity,MT1-MMP act inh RFP,SMILES
6,9,2,Cc1ccc(S(=O)(=O)N2CCN(C(=O)COC(=O)CNC(=O)c3ccc(Cl)cc3Cl)CC2)c(C)c1
0,-14,1,Cc1ccc(CN(C)C(=O)c2ccccc2NC(=O)c2ccccc2)o1
-2,-20,2,O=S(=O)(c1ccc(SCc2ccccc2)nc1)N1CCCCCC1
-1,-13,-17,COc1cc(F)ccc1-c1cc(C(=O)Nc2ccc(C)c(NS(C)(=O)=O)c2)[nH]n1
5,-16,0,COc1cccc(-c2cnc(C(O)c3ccc(C)cc3C)[nH]2)c1 (stereo not given)
-1,2,-1,N#Cc1ccc(-c2ccc3nccn3c2)cc1
-3,-9,-5,CCOc1ccccc1C(=O)NC(C(=O)N(C)Cc1ccc2c(c1)OCO2)C(C)C (stereo not given)
-1,-2,-2,Cc1ccc(C)c(S(=O)(=O)Nc2ccc(C(=O)N3CC(C)OC(C)C3)cc2)c1 (stereo not given)
-5,-16,2,Cc1ccc(S(=O)(=O)Nc2cc(Cl)ccc2-n2cncn2)cc1
-9,-1,-8,C#CCN(C[C@H]1[C@H](OC(=O)NCC2CCCCC2)[C@H](OC(=O)NCC2CCCCC2)C[C@H]2C(=O)N(c3ccccc3)C(=O)[C@@H]12)S(=O)(=O)c1ccc(C)cc1
0,1,5,CC(NC(=O)COc1ccccc1)C(=O)N1CCN(c2ccccc2)CC1 (stereo not given)
2,3,3,CC1CC2CCCC(O)=C2C(=O)O1 (stereo not given)
-2,1,0,CSc1ccccc1NC(=O)CN(C)C(=O)C1CC(=O)N(C(C)c2ccccc2)C1 (stereo not given)
-3,6&6,2,C[C@H](CO)N1C[C@H](C)[C@H](CN(C)S(=O)(=O)c2ccc(-n3cccn3)cc2)OCc2cnnn2CCCC1=O
0,-4,1,COc1ccc(CN(C)C(=O)/C=C/[C@H]2O[C@@H](n3cc(C)c(=O)[nH]c3=O)C[C@@H]2O)cc1OC
2,-13,3,CCC1Oc2ccccc2N(CC(=O)N2CCCC2)C1=O (stereo not given)
0,-12,0,Cc1cc(-c2cc(C)c(N)cc2C)c(C)cc1N
-6,-17,-2,O=C(Nc1ccc(Br)cc1)C1CCCN(C2=NS(=O)(=O)c3ccccc32)C1 (stereo not given)
-2,-7,1,CSCCC(NC(=O)COc1ccccc1)C(=O)N1CCC(C(N)=O)CC1 (stereo not given)
-4,2,-1,CC(=O)N1CCC(C(=O)Nc2ccc(S(=O)(=O)N3CCCC(C)C3)cc2)CC1 (stereo not given)

Random excerpt: 4 entries already listed
MT1-MMP act inh,UUG fidelity,MT1-MMP act inh RFP,SMILES
0,-12,0,Cc1cc(-c2cc(C)c(N)cc2C)c(C)cc1N
-3,6&6,2,C[C@H](CO)N1C[C@H](C)[C@H](CN(C)S(=O)(=O)c2ccc(-n3cccn3)cc2)OCc2cnnn2CCCC1=O
-2,-7,1,CSCCC(NC(=O)COc1ccccc1)C(=O)N1CCC(C(N)=O)CC1 (stereo not given)
0,-4,1,COc1ccc(CN(C)C(=O)/C=C/[C@H]2O[C@@H](n3cc(C)c(=O)[nH]c3=O)C[C@@H]2O)cc1OC

More records.
MT1-MMP act inh,UUG fidelity,MT1-MMP act inh RFP,SMILES
3,0,-4,O=C(Nc1cccc(-n2cnnn2)c1)c1ccc(C(F)(F)F)cc1
-1,-18,-2,O=C(Nc1ccccc1)C1CCN(S(=O)(=O)c2cccs2)CC1
2,-1,0,CCCCC(CC)CO (stereo not given)
3,1,-1,CC1(C(=O)NCc2ccccc2Br)CCN1Cc1ccccc1OC(F)F (stereo not given)
-5,-6,2,C=CCn1c(C)cc(C(=O)COC(=O)c2cncc(Br)c2)c1C
-6,3,-17,CN1CCn2cnc(C(=O)NCc3ccccc3)c2C1=O
-4,-19,-15,O=[N+]([O-])c1ccc(CSc2ccc(S(=O)(=O)N3CCCC3)cn2)cc1
1,-16,4,Cc1cn([C@H]2C[C@H](O)[C@@H](CNCc3ccc(F)c(N4CCOCC4)c3)O2)c(=O)[nH]c1=O
2,1,-1,O=C(COC(=O)c1ccc(F)cc1)NC1CC1
-2,-17,1,Cc1ccsc1C(=O)OCC(=O)NC1CCCCC1C (stereo not given)
0,-9,4,CC1(c2cccc(Br)c2)NC(=O)N(CC(=O)N2CCN(C(=O)c3ccco3)CC2)C1=O (stereo not given)
-1,-7,-4,COC(=O)C(C(=O)OC)C(CC(=O)c1ccc(Br)cc1)c1ccccc1 (stereo not given)
0,-12,4,CCCOc1ccc(C2/C(=C(/O)c3ccccc3)C(=O)C(=O)N2CCCN(C)C)cc1OC (stereo not given)
2,-22,0,COC(=O)[C@H](C)N(Cc1ccc(Cl)c(Cl)c1)S(=O)(=O)CCNC1CCCC1
2,-9,0,CCCCn1nc(C(=O)N(CC(C)C)c2c(N)n(CCCC)c(=O)[nH]c2=O)c2ccccc2c1=O
0,-21,1,O=C(CN1C(=O)NC2(CCOc3ccccc32)C1=O)NCc1ccc(F)cc1 (stereo not given)
-3,4,-16,Cc1cc(C(=O)CN2C(=O)C(=O)N(C3CCCC3)C2=O)c(C)n1CCc1ccc(F)cc1
3,-15,4,O=C(O)c1ccc([N+](=O)[O-])cc1
1,-12,1,CSc1ncnc2c1ncn2CCCN1CCN(C(=O)C2CC2)CC1
-6,-11,-13,Cc1cc(C)c2c(CN(Cc3ccccc3)Cc3ccccc3)cc(=O)oc2c1
-1,-10,-29,COc1ccccc1CNc1nc(NCc2ccccc2F)c2sccc2n1
4,-16,4,COCCNC(=O)c1cccc2c(-c3cnn(C)c3)coc12
-2,-6,1,COc1ccc(CNC(=O)C(C)Sc2nc3ccccc3c(=O)n2CC2CCCO2)cc1 (stereo not given)
-3,-12,-3,CCN(C(=O)CSc1ccc(S(=O)(=O)N2CCOCC2)cn1)c1ccccc1
5,-10,0,Cc1nc(SCC(=O)NCC2CCCO2)c2cc(-c3ccccc3)sc2n1 (stereo not given)
1,0,-6,COc1ccc(-c2nc(CC(=O)Nc3cccc(S(=O)(=O)NC4=NCCC4)c3)cs2)cc1
-8,3,-10,Cc1ccc(NC(=O)CSCC(=O)N(C)Cc2c(F)cccc2Cl)cc1
-4,-10,-6,CCCOc1ccc(F)cc1-c1cc(C(=O)NCc2ccco2)[nH]n1
-2,-15,1,CCc1nc(SCC(=O)Nc2ccc(N(CC)CC)cc2)n[nH]1
-9,1,-8,CC1(c2ccccc2)NC(=O)N(CC(=O)Nc2cc(C(F)(F)F)ccc2N2CCCCC2)C1=O (stereo not given)
2,-13,4,CC(=O)N1CCCC(C)(C(=O)Nc2ccc3nc(C)ccc3c2)C1 (stereo not given)
0,8,-12,Cc1noc(C)c1COc1ccccc1C(=O)N1CCN(c2cccc(C(F)(F)F)c2)CC1
1,13&-4,4,C[C@@H]1CN([C@H](C)CO)C(=O)CCCn2nncc2CO[C@@H]1CN(C)S(=O)(=O)c1cccc(C#N)c1
-6,-14,0,CCN(CC(=O)NCc1cccs1)C(=O)/C=C/c1ccc(C)cc1
-2,17,-2,CSc1nc2nc(Cl)c(Cl)nc2[nH]1
1,-9,3,C=C(CCO)C1=CCN(S(=O)(=O)C(C)(C)C)[C@H]1CCO
-2,-3,8,CCCN(C(=O)COC(=O)c1nc2nc(C)cc(C)n2n1)C1CCS(=O)(=O)C1 (stereo not given)
-1,2,4,Cc1ccc(S(=O)(=O)N(C)C)cc1NC(=O)COC(=O)CCNS(=O)(=O)c1ccccc1
-6,4,3,CC12C(=O)N(c3nccs3)C(=O)C1(C)C1CCC2O1 (stereo not given)
0,-12,5,CN(C)Cc1c[nH]c2nc[nH]c(=O)c12
0,-15,-1,Oc1ccccc1C1=NC(c2ccccc2)NC(c2ccccc2)C1 (stereo not given)
-2,-7,-2,COc1c(N)c2c(c([N+](=O)[O-])c1OC)C(=O)OC2
2,12,-5,Cc1cc(NC(=O)CSc2nc(-c3cccs3)nc3ccccc23)no1
-1,-2,1,Cc1cc(C)cc(C(=O)NCC(=O)OCC(=O)c2c(N)n(C)c(=O)n(C)c2=O)c1
-14,-12,-13,CC(C)[C@H](N)C(=O)N[C@H]1CCC2C3CC=C4C[C@@H](O)CC[C@]4(C)C3CC[C@@]21C (stereo not given in full)
2,-22,-1,CCOC(=O)C1CCCN(C(=O)c2ccc3c(c2)OCCO3)C1 (stereo not given)
0,-40,4,CCNC(=O)C1(C)CCN(C(=O)CCc2ccccc2)C1 (stereo not given)
-4,-6,-5,COc1ccc(OC)c(NC(=O)C2(C)CCN2C(=O)Cc2ccccc2)c1 (stereo not given)
1,-6,4,O=C(COc1ccccc1CNC[C@H]1O[C@@H](n2ccc(=O)[nH]c2=O)[C@H](O)[C@@H]1O)N1CCCCC1
4,-13,9,Cc1cc(=O)n2cn[nH]c2n1

Reprinted from the part before: 3 entries, followed by the next part.
MT1-MMP act inh,UUG fidelity,MT1-MMP act inh RFP,SMILES
-4,-6,-5,COc1ccc(OC)c(NC(=O)C2(C)CCN2C(=O)Cc2ccccc2)c1 (stereo not given)
1,-6,4,O=C(COc1ccccc1CNC[C@H]1O[C@@H](n2ccc(=O)[nH]c2=O)[C@H](O)[C@@H]1O)N1CCCCC1
4,-13,9,Cc1cc(=O)n2cn[nH]c2n1
2,20,3,O=C1OC(c2ccccc2)(c2ccccc2)c2ccsc21
0,-14,-2,COc1cc2c(cc1OC)C(=O)CCC2
1,-8,-12,CN(c1ccc(F)cc1)S(=O)(=O)c1ccc(Cl)c(C(=O)NCC2(N3CCOCC3)CCCCC2)c1
0,-2,-3,CC1c2ccccc2N(S(=O)(=O)c2ccccc2)C1C (stereo not given)
0,-10,4,C[C@@H](CO)NC(=O)[C@H]1O[C@@H](n2cnc3c(N)ncnc32)[C@H](O)[C@@H]1O
0,-12,0,COc1ccc(CN2C(=O)c3ccccc3C2=O)cc1C(=O)N(C)CC(=O)Nc1ccc(C)cc1
-5,-11,-3,Cc1ccc(C)c(OCc2cc(C(=O)N3CCN(C4CCCCC4)CC3)no2)c1
1,-3,-1,O=C(COC(=O)c1ccc(F)cc1Cl)Nc1cccc(S(=O)(=O)N2CCOCC2)c1
1,-14,3,CC(=O)C1CCC2C3CCC4=CC(=O)C=CC4(C)C3C(=O)CC12C (stereo not given)
-2,3,-9,COc1ccc(CNC(=O)COC(=O)c2ccc(C)c(S(=O)(=O)N3CCOCC3)c2)cc1OC
-2,-14,3,CSc1ncccc1C(=O)NNC(=O)c1csc(N2CCOCC2)n1
-4,-15,-6,Cc1cc(Cl)ccc1OCC(=O)N(Cc1ccco1)c1c(N)n(Cc2ccccc2)c(=O)[nH]c1=O
-2,-23,2,CCCn1c(SCC(=O)c2c(N)n(C3CC3)c(=O)[nH]c2=O)nnc1-c1ccncc1

Assay outcomes as filed in PubChem.

Only part of the results is shown (hit frequency here may not be typical).
